# KCNQ2 block = KCNQ2 channel blockers in CHO-K1 cells – cell-based, FluxOR thallium flux, B-score, primary screen (AID 2156). 310,000 compounds, 1.1% hits. B-score at 10 µM. O88943. 20 min; active compounds read low; only compounds with negative scores are shown here; some inactives read as strong as hits;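 active = fluorescence ratio B-score at most minus 3 library SDs, with starting brightness B-score within 2 library SDs, cut at about -5.5 in these data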
# Target sequence (O88943 whole entry, looked up): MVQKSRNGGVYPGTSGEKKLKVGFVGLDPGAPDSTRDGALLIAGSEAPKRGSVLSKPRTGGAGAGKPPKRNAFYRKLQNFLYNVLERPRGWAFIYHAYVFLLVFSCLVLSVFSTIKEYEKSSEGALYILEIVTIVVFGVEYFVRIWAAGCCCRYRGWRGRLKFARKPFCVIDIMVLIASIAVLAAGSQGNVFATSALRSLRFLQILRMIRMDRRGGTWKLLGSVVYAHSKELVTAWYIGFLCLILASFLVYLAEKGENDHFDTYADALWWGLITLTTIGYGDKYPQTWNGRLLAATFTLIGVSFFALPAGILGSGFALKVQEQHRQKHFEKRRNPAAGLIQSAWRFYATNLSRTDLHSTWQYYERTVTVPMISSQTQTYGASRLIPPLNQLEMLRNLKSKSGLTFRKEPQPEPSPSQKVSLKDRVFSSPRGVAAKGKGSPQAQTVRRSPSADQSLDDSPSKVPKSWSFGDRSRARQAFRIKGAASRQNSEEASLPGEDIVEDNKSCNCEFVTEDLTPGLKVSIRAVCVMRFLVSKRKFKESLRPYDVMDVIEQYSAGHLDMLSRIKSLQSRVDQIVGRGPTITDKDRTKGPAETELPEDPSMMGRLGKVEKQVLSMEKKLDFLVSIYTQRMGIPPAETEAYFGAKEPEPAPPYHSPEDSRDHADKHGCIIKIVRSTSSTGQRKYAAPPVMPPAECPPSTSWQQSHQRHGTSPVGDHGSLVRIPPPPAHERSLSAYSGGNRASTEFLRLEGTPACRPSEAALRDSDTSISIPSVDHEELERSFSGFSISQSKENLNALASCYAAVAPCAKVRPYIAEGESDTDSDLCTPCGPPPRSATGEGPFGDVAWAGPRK
# KCNQ2 block baseline = recorded beside KCNQ2 block, whose call it bears; B-score; measured here: initial fluorescence intensity artifact check;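 brightness before thallium and not channel activity; 0 = typical well and far values either way flag optical interference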
# Starred values were filed as active, the others as inactive; i = inactive. An excerpt, so the mix of outcomes need not match the whole.
SMILES,KCNQ2 block,KCNQ2 block baseline
COc1ccc(/C=N/N2CCN(Cc3ccc(C)cc3)CC2)cc1Br,i,-0.11
COc1cccc(C2CC(c3ccccc3)=NN2S(=O)(=O)c2ccc(C)cc2)c1OC (stereo not drawn),i,-0.28
COC(=O)c1cn(NC(=O)c2cc(OC)c(OC)c(OC)c2)c(=O)c2ccccc12,i,0.85
Cc1cccc(N(CC(=O)NCc2ccccc2)C(=O)Cn2nnc(-c3ccc(C)o3)n2)c1,i,-0.42
Cc1ccc(S(=O)(=O)N2CCOCC2)cc1C(=O)OCCOc1cccc(Cl)c1,i,-2.5
CCC1CCCCN1C(=O)N[C@@H](CCSC)C(=O)OC (stereo partly drawn),i,0.02
COC(=O)c1c(NC(=O)CSc2ncnc3c2cnn3-c2ccccc2Cl)sc2c1CCCC2,i,0.26
CC(C)Oc1ccc(C(=O)NC(=S)Nc2ccc(CN3CCOCC3)cc2)cc1,i,-0.9
CC(C)(C)NC(=O)CSc1nc2cccnc2n1C1CCCCC1,i,0.36
Cc1csc(CNC(=O)CC2C(=O)NCCN2Cc2ccc(F)cc2Cl)n1 (stereo not drawn),i,0.71
CCOC(=O)N1CCN(c2c(NCc3ccc(F)cc3)c(=O)c2=O)CC1,i,1.8
Cc1cccc(-c2nc(CS(=O)CC(=O)NCCCSC3CCCCC3)c(C)o2)c1 (stereo not drawn),i,-1.8
Cc1cc(C)c(S(C)(=O)=O)c(Oc2cccc(Cl)c2)n1,i,0.51
CCNC(=S)NNC(=O)c1cc(-c2cccc(OCC)c2)nc2ccccc12,i,-0.07
CCOc1ccc(-n2c(=O)[nH]cc(C(=O)Nc3ccc(OC)c(OC)c3)c2=O)cc1,i,1.4
COC(=O)c1ccc(CN(c2ccc(C(=O)O)c(O)c2)S(=O)(=O)c2ccc(Cl)c([N+](=O)[O-])c2)cc1,i,-1.5
Clc1ccc(-c2n[nH]c3c2CCC3)c(Cl)c1,i,-0.04
CCOC(=O)N1CCN(S(=O)(=O)c2ccc(C(=O)Nc3ccc4c(c3)C(=O)NC4=O)cc2)CC1,i,2.5
O=C(NCCOC(=O)c1ccc(F)cc1)c1ccc(F)cc1,i,0.01
CSc1ccc(/C=C/C(=O)OCC(=O)N(C)CCC#N)cc1,i,-0.57
O=C1c2cccc3c(N4CCCCC4)ccc(c23)C(=O)N1c1cccc(O)c1,i,2.4
CCOC(=O)CN(C(=O)CN1CCOCC1)c1ccc(Br)cc1,i,-0.02
COCCn1c(C)cc(C(=O)CSc2cc(C)c3ccccc3n2)c1C,i,0.6
COc1ccccc1NC(=O)c1ccc(NC(=O)CSc2nnnn2C)cc1,i,2.1
CCOc1ccccc1N1CCN(S(=O)(=O)c2cccs2)CC1,i,-0.41
SMILES,KCNQ2 block,KCNQ2 block baseline
CCOC(=O)c1ccc(-n2ccnc2)c(NC(=O)c2ccc(C(C)(C)C)cc2)c1,i,-0.24
O=C(O)[C@H](Cc1ccccc1)N1C(=O)c2c(Cl)c(Cl)c(Cl)c(Cl)c2C1=O,i,-0.67
CCOC(=O)c1c(C)oc(NC(=O)COc2ccc(Cl)cc2C)c1C#N,i,0.67
Cn1c(=O)c2sccc2n2c(CCCC(=O)NC3CCN(Cc4ccccc4)CC3)nnc12,i,-1.3
COc1ccc(N2C(=O)CC(Sc3ccccc3C(=O)O)C2=O)c([N+](=O)[O-])c1 (stereo not drawn),i,-2.3
Cc1snc(SCC(=O)N/N=C(\N)COc2ccc(F)cc2)c1C#N,i,1.4
O=C(O)CCCC(=O)NNc1ncnc2ccccc12,i,0.25
COC(=O)c1cc(S(=O)(=O)Nc2cc(S(=O)(=O)N(C)C)ccc2C)oc1C,i,-0.17
CCOC(=O)c1c(NC(=S)Nc2ccc(OCC)cc2)sc2c1CCN(C)C2,i,-0.01
O=C(NC1CCCCC1)N1CCC(c2nc3ccccc3[nH]2)CC1,i,-1.8
CC1(C)Cc2c(sc3ncnc(NNC(=S)NCc4ccccc4)c23)CO1,i,-0.88
Cc1ccc(C(=O)Nc2c(C#N)c(C)c(C)n2Cc2ccccc2)cc1,i,-1.5
Cc1cc(N/N=C/c2ccncc2)nc2ccccc12,i,1.5
O=C(CSc1nccn1Cc1ccco1)Nc1ccccc1F,i,0.67
O=C1C2C3C=CC(C3)C2C(=O)N1c1ccc(-c2nc3ccccc3c(=O)o2)cc1 (stereo not drawn),i,-2
Cc1ccccc1-c1nnc(SCC(=O)N(CC(C)C)c2c(N)n(CC(C)C)c(=O)[nH]c2=O)n1C,i,-0.05
Cn1cc(Cl)c(C(=O)N(Cc2ccccc2)c2ccccn2)n1,i,1.1
Cc1cccnc1NC(=O)Cn1c(=O)oc2ccccc21,i,-1
O=C(CSc1nc2cc(Cl)ccc2s1)NC(=O)NCc1ccco1,i,1.1
CSCCOC(=O)C1=C(C)NC(=O)NC1c1ccc2c(c1)OCO2 (stereo not drawn),i,-0.21
COC(=O)[C@]1(Cc2ccccc2)N[C@H](c2ccc(-c3ccccc3)cc2)[C@@H]2C(=O)N(C)C(=O)[C@@H]21,i,-1.9
CC1(OC(=O)C2CCCC2)C(=O)C=C2C=C3CCCN3C=C2C1=O (stereo not drawn),i,0.62
COc1ccccc1CC(=O)Nc1cc(OC)c(NC(=O)c2ccccc2)cc1OC,i,-4.8
CC1CCN(C2=NC(=O)/C(=C/c3cn[nH]c3-c3ccccc3)S2)CC1,i,-1.2
CCOC(=O)c1sc(N2C(=O)C(O)=C(C(=O)c3ccco3)C2c2ccc(C)o2)nc1C (stereo not drawn),i,-0.4
SMILES,KCNQ2 block,KCNQ2 block baseline
Nc1nc(NCc2ccco2)nc(N2CCN(Cc3ccccc3)CC2)c1[N+](=O)[O-],i,1.3
Cc1ccc(S(=O)(=O)N(CC(=O)N2CCC(C)CC2)c2ccccc2)cc1,i,1.5
O=C(NCC1CCCO1)c1ccc(NC(=O)c2cc(F)c(F)cc2Cl)cc1 (stereo not drawn),i,-0.66
Cc1cccc(C)c1N1C(=O)c2ccccc2C1=O,i,1.4
CC1CCCCN1C(=O)CSc1nnc(-c2ccc(Cl)s2)o1 (stereo not drawn),i,-1
S=C(NCCSCc1ccc(Cl)c(Cl)c1)Nc1ccccc1,i,-0.04
COc1ccccc1CN(Cc1cc2cc(C)ccc2[nH]c1=O)Cc1nnnn1Cc1ccco1,i,2.5
O=C(NC(=S)N1CCN(C/C=C/c2ccccc2)CC1)c1ccco1,i,-0.41
C=CCNC(=O)CC(=O)N/N=C/c1cccs1,i,1.4
CC1CCCCC1NC(=O)COC(=O)C12CC3CC(CC(Cl)(C3)C1)C2 (stereo not drawn),i,-0.99
O=C(CCc1nc2ccccc2[nH]c1=O)N/N=C/c1ccccc1,i,-0.23
CCOC(=O)c1cc(CN2CCOCC2)oc1-c1ccccc1,i,2
COc1ccc(NC(=O)CSc2nc3ccccc3nc2N2CCCC2)cc1Cl,i,-0.74
O=c1c(Cc2c(F)cccc2Cl)c(O)ccn1CC1CCCO1 (stereo not drawn),i,-0.06
O=c1c(Cl)c(NCc2ccco2)cnn1C12CC3CC(CC(C3)C1)C2,i,-1.1
CCC1CCCCN1C(=O)c1ccc(OC)c(OC2CCN(C(C)=O)CC2)c1 (stereo not drawn),i,-0.13
Cc1cc2nc(CCN(C(=S)NCC(C)C)C3CCCC3)[nH]c2cc1C,i,-2.2
CC(=O)NC1(C(F)(F)F)NC(=O)N(C2CCCCC2)C1=O (stereo not drawn),i,1.8
COc1cccc2cc(CC(=O)c3cc(C)ccc3C)c(=O)oc12,i,-0.26
CSc1sccc1/C=C(/C#N)C(=O)c1ccco1,i,0.99
CCCc1cc(=O)oc2cc(C)cc(O)c12,i,1.3
O=C(CNC(=O)c1ccc(Br)o1)NNC(=O)c1ccccc1F,i,0.96
CN(CCO)c1cc(N2CCCCC2)c2nonc2c1[N+](=O)[O-],i,-0.58
O=[N+]([O-])c1cc([N+](=O)[O-])c2cccnc2c1Oc1ccccc1O,i,-2.1
CCc1cc2c(cc3c(=O)n(CC(=O)N4CCN(C)CC4)ncn32)s1,i,0.69

# Rewritten with values ahead of the structure: entries from further up
KCNQ2 block | KCNQ2 block baseline | molecule
i | -2.2 | Cc1cc2nc(CCN(C(=S)NCC(C)C)C3CCCC3)[nH]c2cc1C
i | 1.8 | CC(=O)NC1(C(F)(F)F)NC(=O)N(C2CCCCC2)C1=O (stereo not drawn)

# Ordered by the number under KCNQ2 block baseline (high to low): 4 of the compounds above
SMILES,KCNQ2 block,KCNQ2 block baseline
CC(=O)NC1(C(F)(F)F)NC(=O)N(C2CCCCC2)C1=O (stereo not drawn),i,1.8
Cc1cccc(C)c1N1C(=O)c2ccccc2C1=O,i,1.4
O=C(CCc1nc2ccccc2[nH]c1=O)N/N=C/c1ccccc1,i,-0.23
O=c1c(Cl)c(NCc2ccco2)cnn1C12CC3CC(CC(C3)C1)C2,i,-1.1

# Additional results
SMILES,KCNQ2 block,KCNQ2 block baseline
O=C(COc1ccc(Cl)cc1)Nc1ccc2c(c1)CCC2,i,0.97
O=C(CN1C(=O)c2ccc([N+](=O)[O-])cc2C1=O)NC1CCCCCC1,i,0.27
O=C(CSc1nc(NS(=O)(=O)c2ccccc2)cc(=O)[nH]1)Nc1ccccc1C(F)(F)F,i,0.31
CCOc1ccc(N2C(=O)CC(N3CCN(c4ccc(C(=O)c5ccncc5)cc4)CC3)C2=O)cc1 (stereo not drawn),i,2.3
O=C(CCCn1nnc(-c2cccnc2)n1)c1ccc(F)cc1,i,2.2
O=C(c1cccc(Cl)c1)N1CCCC(c2ccc(Cl)cc2)=N1,i,-1.5
Cc1ccccc1C(=O)O/N=C(\N)c1cccc([N+](=O)[O-])c1,i,-1.5
Cc1ccc(S(=O)(=O)N(Cc2ccc(F)cc2)Cc2ccco2)cc1,i,-2.5
CN(C)CC(C)(C)CNS(=O)(=O)c1ccc(OC(F)(F)F)cc1,i,-0.09
CCOC(=O)CNC(=O)/C=C/c1ccc2c(c1)OCO2,i,0.33
CC(=O)c1cccc(NC(=O)C(NC(C)C)c2ccccc2)c1 (stereo not drawn),i,-0.14
Cc1ccc2oc(C(=O)N3CCC(C(N)=O)(N4CCCCC4)CC3)c(C)c2c1,i,0.57
CN(C)CCN(CC1CCCN(Cc2ccccc2F)C1)C(=O)c1ccc(Cl)cc1 (stereo not drawn),i,0.03
CN(c1ccccc1)S(=O)(=O)c1ccc(NC(=O)c2ccc(-c3ccccc3)cc2)cc1,i,-1
Cc1cc2c(cc1C)NC(c1cccnc1)C1=C(CC(C)(C)CC1=O)N2 (stereo not drawn),i,0.43
Cc1ccc(NC(=O)CSc2nncn2-c2ccccn2)cc1Cl,i,1.5
COc1ccccc1CNC(=O)c1ccccc1N(C)S(C)(=O)=O,i,0.34
O=C(CCS(=O)(=O)c1ccccc1)Nc1cccc2c1C(=O)NC2=O,i,1.5
O=C(c1ccc2nc(Cc3cccc(Cl)c3)oc2c1)N1CCC[C@H]1CO,i,0.95
O=c1[nH]c2ccccc2n2c(C(F)(F)F)nnc12,i,0.58
COc1ccc(/C=C2\SC(=S)N(CC(=O)NC3C=CS(=O)(=O)C3)C2=O)cc1 (stereo not drawn),i,-0.16
C=CCSc1nnc(-c2cc3c(s2)-c2ccccc2CC3)o1,i,1.5
CC(=O)N1CCN(c2ccc(NC(=O)c3ccc([N+](=O)[O-])cc3Cl)cc2)CC1,i,0.01
N#CC(C#N)=C1C=CC=CN1/C(=C\c1ccccc1)C(=O)c1cccs1,-10*,-0.43*
C=CCN(c1ccc(C(=O)Nc2ccc(C)c(C)c2)cc1)S(C)(=O)=O,i,0.44
SMILES,KCNQ2 block,KCNQ2 block baseline
CN(CC(=O)Nc1ccccc1F)CC(=O)Nc1ccc(F)c(F)c1F,i,-0.01
COc1ccc(CCNC(=O)c2ccccc2NS(=O)(=O)c2c(F)cccc2F)cc1,i,-0.06
CCOC(=O)C1CCCN(C(=O)c2ccc(OCC)cc2)C1 (stereo not drawn),i,0.11
CCN(C(=O)COC(=O)c1cccc(-n2cnnn2)c1)C1CCCCC1,i,-1.7
CN(c1ccccc1)S(=O)(=O)c1cc(C(=O)N2CCN(c3ccccn3)CC2)ccc1Cl,i,-1.8
Cc1nn(Cc2ccc(C(=O)NC3CCCCC3)o2)c(C)c1Br,i,1.6
COc1cc(NC(=O)c2cccc(C)c2)c(OC)cc1NC(=O)CN1CCCCC1,i,1.1
COc1ccc(C2=NOC3(CC(=O)N(c4ccc(F)cc4)C3=O)C2)c(OC)c1 (stereo not drawn),i,0.1
O=C(c1ccccn1)N1N=C2/C(=C/c3ccc(F)cc3)CCCC2C1c1ccc(F)cc1 (stereo not drawn),i,0.29
CCOC(=O)C1=C(CP(=O)(c2ccccc2)c2ccccc2)NC(=O)NC1c1ccc(Cl)cc1 (stereo not drawn),i,0.75
Cc1cccc(N2CCN(C(=O)c3cccs3)CC2)c1C,i,0.82
Cc1ccc(NC(=O)C2(S(=O)(=O)c3ccc(Cl)cc3)CC2)c(Br)c1,i,-1.4
O=C(NNc1c2ccccc2nc2ccccc12)c1ccc(Cl)cc1,i,-0.43
O=C(NCc1ccco1)c1ccc(Cn2c(=O)c3ccccc3n(Cc3cccc(F)c3)c2=O)cc1,i,0.09
Cc1cccc2cc(CN(Cc3ccc(F)cc3)C(=O)N3CCOCC3)c3nnnn3c12,i,-1.6
CCSc1nnc(NC(=O)CSc2nnc(Cc3cccn3C)n2-c2ccc(C)cc2)s1,i,0.16
CCOC(=O)Cc1csc(NC(=O)c2cc3ccccc3o2)n1,i,-0.49
CC(=O)Nc1ccc(S(=O)(=O)NC(CC(=O)O)c2ccc(C)cc2)cc1 (stereo not drawn),i,0.47

# Complete entries, looked up by structure. Order of values: KCNQ2 block, KCNQ2 block baseline
# Record of `S=C(NCCSCc1ccc(Cl)c(Cl)c1)Nc1ccccc1` = i, -0.04
# Record of `Cn1c(=O)c2sccc2n2c(CCCC(=O)NC3CCN(Cc4ccccc4)CC3)nnc12` = i, -1.3
# Record of `CCOC(=O)C1=C(CP(=O)(c2ccccc2)c2ccccc2)NC(=O)NC1c1ccc(Cl)cc1` (stereo not drawn) = i, 0.75
# Record of `COc1cccc(C2CC(c3ccccc3)=NN2S(=O)(=O)c2ccc(C)cc2)c1OC` (stereo not drawn) = i, -0.28
# Record of `CSCCOC(=O)C1=C(C)NC(=O)NC1c1ccc2c(c1)OCO2` (stereo not drawn) = i, -0.21
